# Screening results as filed in PubChem BioAssay.
# Yeast UUG start: modulators of yeast start codon fidelity, primary screen, whole organism, S. cerevisiae, single point, plate reader; 350,000 tested, 0.13% active; S. cerevisiae UUG-firefly luciferase reporter, luminescence/redox ratio; activity score, % at 18.7 µM;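 active = replicate mean at a twofold rise or more, about +100% in these data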;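 also: firefly luciferase made from a UUG start codon reports start codon fidelity; reporter light over untreated wells divided by growth signal over untreated wells; some hits fall short of that in this replicate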
# PABP polyA inh: PABP poly(A) RNA binding inhibitors, primary screen, biochemical, fluorescence polarization, uHTS. Polyadenylate-binding protein 1 (Homo sapiens), P11940. inhibition, % at 35 µM. 290,000 tested, 1% active. AID 2014, 2009;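 active = 50% or more with normal probe brightness, or confirmed in later tests; inconclusive = above 50% with abnormal brightness, or retests that disagree; inactive = below 50% or failed in later tests; about a fifth of its hits are not listed in these tables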;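 also: calls also rest on retests at 20 µM and on dose response follow-up; controls were probe without protein and protein plus probe with vehicle; some compounds called inactive have numbers as strong as hits; many hits fall short of the cut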
# Target sequence (P11940 whole entry, looked up): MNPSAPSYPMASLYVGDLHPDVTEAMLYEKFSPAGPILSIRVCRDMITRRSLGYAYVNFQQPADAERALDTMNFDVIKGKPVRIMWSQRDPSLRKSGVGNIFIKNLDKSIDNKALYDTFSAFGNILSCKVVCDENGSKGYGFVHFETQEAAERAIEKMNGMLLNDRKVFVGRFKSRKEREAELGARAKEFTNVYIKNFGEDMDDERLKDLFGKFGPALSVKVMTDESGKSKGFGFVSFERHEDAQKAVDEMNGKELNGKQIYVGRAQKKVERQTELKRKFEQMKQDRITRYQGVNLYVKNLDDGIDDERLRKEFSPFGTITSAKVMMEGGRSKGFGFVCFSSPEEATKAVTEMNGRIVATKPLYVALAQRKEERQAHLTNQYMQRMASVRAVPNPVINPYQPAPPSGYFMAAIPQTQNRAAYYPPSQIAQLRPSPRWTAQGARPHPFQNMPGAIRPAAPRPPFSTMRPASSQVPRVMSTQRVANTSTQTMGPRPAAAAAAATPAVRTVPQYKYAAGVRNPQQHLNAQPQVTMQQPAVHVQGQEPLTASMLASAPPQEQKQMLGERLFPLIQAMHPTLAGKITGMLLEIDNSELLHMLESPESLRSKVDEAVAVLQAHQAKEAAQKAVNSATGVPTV
# eIF4H inh: human eIF4H binding inhibitors, primary screen, translation initiation inhibitor project, biochemical, uHTS, fluorescence polarization | 290,000 tested, 0.94% active | eIF4H fluorescence polarization binding assay | Eukaryotic translation initiation factor 4H (Homo sapiens), Q15056 | inhibition, % at 35 µM | AID 2012, 2009;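 active = 50% or more with normal probe brightness, or confirmed in later tests; inconclusive = above 50% with abnormal brightness, or retests that disagree; inactive = below 50% or failed in later tests; about a fifth of its hits are not listed in these tables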;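 also: calls also rest on retests at 20 µM and on dose response follow-up; 0% = protein and probe with vehicle and 100% = probe without protein; strong numbers were not always called active; many hits fall short of the cut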
# Rce1 inh: yeast Rce1p protease inhibitors, primary screen, biochemical, fluorescence, cell-free homogeneous | CAAX prenyl protease 2 (Saccharomyces cerevisiae (strain ATCC 204508 / S288c)), Q03530 | yeast membranes, quenched prenylated peptide cleavage fluorescence | calls only | 290,000 tested, 0.27% active;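 active = fall in fluorescence gain of 50% or more versus controls, with final raw signal at or below 3038400; inconclusive = same 50% fall but final raw signal above 3038400; inactive = fall in fluorescence gain under 50%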;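 also: plate controls were neutral control wells for no effect and wells lacking membranes for full effect; tested at 10 µM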
# Target sequence (Q03530 whole entry, looked up): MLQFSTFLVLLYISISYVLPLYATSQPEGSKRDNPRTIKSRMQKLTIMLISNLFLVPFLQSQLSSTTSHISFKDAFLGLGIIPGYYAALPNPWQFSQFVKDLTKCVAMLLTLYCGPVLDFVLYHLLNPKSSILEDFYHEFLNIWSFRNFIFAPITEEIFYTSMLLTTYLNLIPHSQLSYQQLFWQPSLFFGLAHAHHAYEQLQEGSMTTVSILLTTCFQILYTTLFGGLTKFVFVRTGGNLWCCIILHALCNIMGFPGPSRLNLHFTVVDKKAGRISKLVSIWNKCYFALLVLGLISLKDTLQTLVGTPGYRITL
# HIV Env fusion: inhibitors of HIV-1 Env-driven cell-cell fusion, primary screen, HeLa-JRFL effector, CEM21 target cells, luciferase; inhibition, % at 12.3 µM; 360,000 tested, 1.1% active;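 active = mean replicate inhibition score of at least 50 and every replicate individually at or above 50; inconclusive = only one of the two criteria met; inactive = mean below 50 and not all replicates reaching 50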;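 also: 0% = plate neutral controls and 100% = maraviroc near 300 nM; one replicate is shown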
# CSC inhib: cancer stem cell viability inhibitors, primary screen, luminescence; cancer stem cell-like cells viability; 300,000 tested, 1.1% active; AID 2717, 2010; inhibition, % at 7.5 µM;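 active = mean at 75% or more and at least half the replicates too; inconclusive = mean and replicates disagree; tested in HMLE shEcad cells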;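 also: 0% = median of negative and 100% = median of positive control wells; the first replicate is given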
# MT1-MMP act inh: blockers of MT1-MMP proenzyme processing, primary screen, HT1080 RFP-PRO-GFP cells, GFP/RFP fluorescence. GFP/RFP ratio change, % at 20 µM. GFP/RFP ratio fluorescence, overnight; percent of plate control window, DMSO zero. 360,000 tested, 0.061% active. Matrix metalloproteinase-14 (Homo sapiens), P50281;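 active = GFP/RFP ratio change of at least 30% with cell ATP level not reduced by more than half and red fluorescence within 50% of control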; also: strong numbers were not always called active
#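 Assay system – RFP-PRO-GFP reporter HT1080 cells · Compound dosing – single dose of 20 µM compound, 1% DMSO final · Incubation – overnight compound exposure at 37 °C · Measure – GFP/RFP fluorescence ratio · Benchmarks – DMSO wells and RFP-L50D-GFP cells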
# eIF4H inh retest: further read-out of eIF4H inh, marked with its call; inhibition, %; compound at 20 µM; confirmation average;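 mean of two retest wells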
# PABP polyA inh retest: also measured in PABP polyA inh; calls as there; inhibition, %; compound at 20 µM; confirmation repeats;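 mean of two retest wells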
# MT1-MMP act inh RFP: recorded beside MT1-MMP act inh, whose call it bears; RFP signal change, %; measured here: RFP expression control read;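 0 = vehicle wells; hits needed this value within 50% of zero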
# Starred values were filed as active, the others as inactive; i = inactive; ? = inconclusive; / = not tested or not shown. This is a subset; rates above refer to the full screens.
# Start of the listing, in advance, 3 compounds:
SMILES,Yeast UUG start,PABP polyA inh,eIF4H inh,Rce1 inh,HIV Env fusion,CSC inhib,MT1-MMP act inh,MT1-MMP act inh RFP,others
COC(=O)c1ccc2cc(C)cc(C)c2n1,-9,/,/,/,-2,/,4,6,
c1ccc(CCNc2ccc3c(c2)Cc2ccccc2-3)nc1,-10,/,/,/,-107,/,4,3,
CN1C2CCC1CC(NC(=O)c1ccc(Cl)cc1)C2 (centres undefined),-12,7,-7,i,1,-8,-2,3,

# The listing, from the start:
SMILES,Yeast UUG start,PABP polyA inh,eIF4H inh,Rce1 inh,HIV Env fusion,CSC inhib,MT1-MMP act inh,MT1-MMP act inh RFP,others
COC(=O)c1ccc2cc(C)cc(C)c2n1,-9,/,/,/,-2,/,4,6,
c1ccc(CCNc2ccc3c(c2)Cc2ccccc2-3)nc1,-10,/,/,/,-107,/,4,3,
CN1C2CCC1CC(NC(=O)c1ccc(Cl)cc1)C2 (centres undefined),-12,7,-7,i,1,-8,-2,3,
COc1cccc(NC(=O)CN2C(=O)c3cccnc3Oc3ccc(Cl)cc32)c1,-17,-2,-6,i,-29,-13,-2,-4,
C=CCNC(=O)C1CCC(CNc2nc(=S)[nH]c3ccccc23)CC1 (centres undefined),-31,5,-5,i,4,-12,0,-1,
Cc1ccccc1OCC(=O)OCC(=O)NCc1ccccc1Cl,12,/,/,/,19,-17,0,2,
O=C(N/N=C/c1cccc(NC(=O)c2ccc(Cl)cc2)c1)c1cccc(O)c1,17,-6,3,i,2,36,15,5,
O=C(CSc1ccc2nnc(CCNC(=O)c3ccccc3)n2n1)Nc1ccc(F)cc1F,0,9,-6,i,-6,-23,-3,3,
O=c1[nH]n(Cc2ccccc2)c(=O)c2ccccc12,-13,4,-8,i,/,-13,6,6,
Cc1cc2ccccc2n1CCNC(=O)C1CCCCC1,-10,-16,19,i,-44,37,38*,36*,
CC(O)(c1ccc(F)c(F)c1)c1nc(-c2ccccc2)cs1 (centres undefined),9,/,/,/,10,/,2,-1,
CCCCN1CCN=C1Nc1ccccc1,-17,7,-5,i,-18,-3,-2,1,
COc1ccc(N(CC(=O)O)S(=O)(=O)c2ccc(C)cc2)cc1Cl,/,6,1,i,10,-4,/,/,
O=C(NCc1ccc2c(c1)OCO2)c1cc(-n2cnnc2)ccc1Cl,-11,55,-7,i,-30,-10,1,2,eIF4H inh retest=-3;PABP polyA inh retest=-2
COc1ccccc1N(C)S(=O)(=O)c1ccc(Cl)c(C(=O)NCc2ccco2)c1,-9,/,/,/,-21,-2,2,-2,
N#Cc1nc(-c2ccc(F)cc2)oc1N1CCCCC1,-23,-2,-5,i,-3,-3,-1,3,
COc1ccccc1CNC(=O)/C=C/c1ccc(S(=O)(=O)NCc2ccco2)cc1,8,-8,-7,i,-35,-5,3,-8,
COc1ccc2cc(C(=O)Nc3ccc(O)cc3)sc(=O)c2c1OC,/,-6,-3,i,/,-2,6,-3,
O=C(NCc1ccccn1)c1cccn1-c1ncc(C(F)(F)F)cc1Cl,-19,-7,-3,i,6,1,5,0,
S=C(NCc1cccc(Cl)c1)NC1CCCCC1,-19,0,-9,i,-21,11,6,0,
COc1cc(C(=O)OC2CSCC2NC(=O)c2ccccc2)cc(OC)c1OC (centres undefined),/,-2,-8,i,-9,-9,7,-3,
Cc1ccc(NC(=O)c2cc(-c3ccccc3)nn2-c2ccccc2)cc1,-15,15,-2,i,-5,88*,-6,-9,
C[C@]12c3[nH]c4ccc(Cl)cc4c3CCN1C(=O)[C@@H](CC(=O)NCC13CC4CC(CC(C4)C1)C3)C[C@@H]2C(=O)N1CCCCC1,-6,/,/,/,30,/,-20,-22,
Cc1ccc(/C=C/c2nnc(-c3cccs3)o2)cc1,-21,0,-2,i,-169,-6,/,/,
COC(=O)C1CCN(CC(=O)Nc2ccc3c(c2)OCCO3)CC1,3,/,/,/,-5,-20,2,-2,

# Six records drawn at random from the list so far, as already listed:
SMILES,Yeast UUG start,PABP polyA inh,eIF4H inh,Rce1 inh,HIV Env fusion,CSC inhib,MT1-MMP act inh,MT1-MMP act inh RFP,others
O=C(NCc1ccc2c(c1)OCO2)c1cc(-n2cnnc2)ccc1Cl,-11,55,-7,i,-30,-10,1,2,eIF4H inh retest=-3;PABP polyA inh retest=-2
CCCCN1CCN=C1Nc1ccccc1,-17,7,-5,i,-18,-3,-2,1,
O=C(N/N=C/c1cccc(NC(=O)c2ccc(Cl)cc2)c1)c1cccc(O)c1,17,-6,3,i,2,36,15,5,
O=c1[nH]n(Cc2ccccc2)c(=O)c2ccccc12,-13,4,-8,i,/,-13,6,6,
Cc1ccc(NC(=O)c2cc(-c3ccccc3)nn2-c2ccccc2)cc1,-15,15,-2,i,-5,88*,-6,-9,
O=C(NCc1ccccn1)c1cccn1-c1ncc(C(F)(F)F)cc1Cl,-19,-7,-3,i,6,1,5,0,

# Carrying on.
SMILES,Yeast UUG start,PABP polyA inh,eIF4H inh,Rce1 inh,HIV Env fusion,CSC inhib,MT1-MMP act inh,MT1-MMP act inh RFP,others
O=C(CN1CCN(S(=O)(=O)c2ccccc2)CC1)N1CCCCC1,18,/,/,/,-1,-15,6,1,
CSc1ccccc1C(=O)N(CC1CCCO1)c1c(N)n(Cc2ccccc2)c(=O)[nH]c1=O (centres undefined),-17,/,/,i,5,-1,13,0,
COc1ccc(/C=N\NC(=O)c2cc(OCC(F)(F)F)ccc2OCC(F)(F)F)cc1,/,-4,2,i,/,/,0,-6,
COc1ccccc1Nc1nnc(SCC(=O)NC2CCCC2)s1,1,/,/,/,0,/,0,1,
C=CCn1c(Sc2ncc([N+](=O)[O-])s2)n[nH]c1=O,-6,9,-8,i,-96,106*,2,2,
O=C(NC1CCCC1)c1ccc(CN2CCOCC2)cc1,-6,-1,3,i,/,-10,4,2,
O=C(CSc1ccc2nnc(CCNC(=O)c3ccccc3)n2n1)NCCc1ccccc1,-7,-6,-7,i,9,-6,-1,2,
CCc1ccc(N2CC(C(=O)N/N=C/c3ccccc3)CC2=O)cc1 (centres undefined),4,/,/,i,-11,1,-3,-1,
C=CCN(CC=C)CCOc1ccc(C)cc1[N+](=O)[O-],/,-10,12,i,-82,-9,3,1,
CC1=C(C(=O)OC(C)C)C(c2ccc(Cl)cc2)n2c(s/c(=C\c3ccc(OCC(=O)O)cc3)c2=O)=N1 (centres undefined),-8,43,49,i,16,/,-6,-8,
CC(C)N(C(=O)[C@H]1C[C@H](CC(=O)NCCC2=CCCCC2)C(=O)N2CCc3c([nH]c4cc(-c5ccco5)ccc34)[C@]12C)C(C)C,-15,/,/,/,11,/,-9,-15,
CC(C)CC(=O)NC(Nc1ccccc1F)C(Cl)(Cl)Cl (centres undefined),-6,-6,-9,i,/,8,-4,-3,
Cc1nn(-c2nc3ccccc3s2)c(C)c1Oc1ccccc1O,5,10,4,i,/,?,4,-3,
CCOC(=O)c1ccc(NC(=O)COc2ccccc2CNC2CCCC2)cc1,/,-10,0,i,4,1,2,-7,
CC(C)(C)NS(=O)(=O)c1ccc(NC(=O)C2CCCCC2)cc1,2,1,-2,i,9,-10,2,-2,
O=C(CCCN1C(=O)c2ccccc2C1=O)Nc1sc2c(c1C(=O)NCc1ccco1)CCC2,-1,18,46,i,18,-1,21,-3,
Cn1c2ccccc2c(=O)c2ccc(C#Cc3ccc(N)cc3)cc21,2,37,?,i,-50,61,-14,-3,PABP polyA inh retest=35
O=C(CCCCCn1c(SCc2ccncc2)nc2ccccc2c1=O)NCc1ccco1,-5,1,14,/,-16,/,-3,1,
CCC(CC)=NNc1cccc([N+](=O)[O-])c1,-2,-6,-14,i,-8,14,1,-1,
COc1ccc(C(C)(C)C)cc1NC(=O)c1c(C)noc1C,11,1,-10,i,-38,-5,0,1,
CCC(C)(C)C(=O)Nc1cc([N+](=O)[O-])ccc1Cl,/,0,2,i,34,-6,-1,2,
O=C(NCc1ccncc1)c1ccc(NS(=O)(=O)c2ccccc2)cc1,-18,-5,-1,i,-256,9,2,3,
Cc1ccc(O)c(NC(=O)c2cc(-c3ccccc3Cl)on2)c1,-7,4,-10,i,-98,31,0,-1,
NS(=O)(=O)c1ccc(NC(=S)NC2CC2)cc1,-31,-2,-4,i,-8,4,-1,1,
c1csc(-c2nnc3ccccn23)c1,-17,-9,-3,/,-3,-3,0,-3,
SMILES,Yeast UUG start,PABP polyA inh,eIF4H inh,Rce1 inh,HIV Env fusion,CSC inhib,MT1-MMP act inh,MT1-MMP act inh RFP,others
CCOC(=O)c1ccc(Oc2c(C)oc3c(CN4CCN(C)CC4)c(O)ccc3c2=O)cc1,-9,5,-14,?,/,-4,-2,-2,
Nc1cc2nn(-c3ccccc3)nc2cc1Cl,/,-6,66,i,-84,/,-3,5,eIF4H inh retest=19;PABP polyA inh retest=1
COc1cc(S(=O)(=O)NCc2ccccn2)ccc1Cl,7,-11,-9,i,-12,-12,-3,1,
O=Cc1ccc(-c2ccccc2OC(F)(F)F)o1,76,2,0,i,/,-2,-3,2,
COc1ccc(Cn2cc(F)c(=O)n(CCC(C)C)c2=O)cc1[N+](=O)[O-],-14,1,2,i,/,-7,2,-1,
CC1=NN(c2ccccc2)C(=O)C1C(=O)c1cc([N+](=O)[O-])cc([N+](=O)[O-])c1 (centres undefined),/,22,-5,i,3,2,4,4,
O=Cc1ccccc1OS(=O)(=O)c1ccccc1,/,-9,-1,i,/,-8,3,7,
CCN(CC(=O)NCc1ccc(Cl)cc1)C(=O)C(C)Sc1ccccc1 (centres undefined),13,12,-9,i,31,-4,0,-1,
COc1cc2cc(CCCOC(=O)CCCC(=O)O)oc(=O)c2cc1OC,-4,/,/,/,-5,-13,4,4,
Cc1ccc(NC(=O)C(=O)NCC2CCCO2)cc1 (centres undefined),/,-1,-3,i,-14,-34,1,5,
O=C(CSc1nnc(-c2ccc(C(F)(F)F)cn2)s1)c1ccccc1,-21,-5,-4,i,-6,12,3,2,
NS(=O)(=O)c1ccc(N2N=C(c3ccccc3)CC2c2ccc(F)cc2)cc1 (centres undefined),/,-4,-11,i,/,10,-7,-10,
Cc1ccc(CN(Cc2cccnc2)C(=S)Nc2cccc(Cl)c2C)cc1,/,?,3,/,6,23,-7,-5,
CN(C)S(=O)(=O)c1cc(NC(=O)COC(=O)CCSc2ccc(Cl)cc2)ccc1Cl,/,12,-8,i,1,-8,4,4,
